A1 inh: inhibitors of the anti-apoptotic protein A1, read as caspase activation | MEF A1-2A-BIM cells, Caspase-Glo 3/7 luminescence, 3 h; percent of clofoctol response, vehicle zero | caspase activation, % (test concentration not listed) | 0.066% of 330,000 active | AID 2462;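 active = over half of replicate activation scores above 10%, or exactly half above 10 with the replicate mean above 10; inconclusive = replicate mean below 10 yet half the replicates above 10; inactive = over half of replicates below 10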;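 also: wells of about 30 µL received 50 nL stock; many hits fall short of the cut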
T cruzi repl: blocks replication of Trypanosoma cruzi. T. cruzi beta-gal in NIH3T3, luminescence, 90 h. 1.4% of 300,000 active. inhibition, % (concentration not given with the values);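 active = mean inhibition across valid replicates above about 55%, limit read from the data; inconclusive = mean below that limit but half or more replicates reach it; inactive = mean below it, under half of replicates reach it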;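 also: signal also drops with host cell toxicity which is not excluded here; 0% = plate median of DMSO wells and 100% = zero luminescence signal; higher percent means less beta-gal luminescence so fewer parasites; stock transfer was 50 nL into about 50 µL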
Vif A3G: inhibitors of Vif binding to APOBEC3G peptide, primary screen, biochemical, TR-FRET, GST-Vif 1-94, biotin-A3G peptide, dose response retest (AID 1117319); TR-FRET GST-Vif / biotin-A3G peptide binding; higher % means a stronger effect; test concentration not given here; strong numbers were not always called active; inhibition, %, or IC50 in µM where a hit was titrated; 0.57% of 260,000 active;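 active = above the screen mean plus three standard deviations and confirmed in dose response; inconclusive = results disagree or hit not tested in dose response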;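 also: Vif residues 1-94 fused to GST binding biotinylated APOBEC3G peptide 110-148; 0% = full assay without inhibitor and 100% = GST in place of GST-Vif; retest series ran down from 100 µM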
Beta cell apopt: beta cell apoptosis inhibition; 0.8% of 300,000 active; INS-1E cytokine-induced death, ATP luminescence, 48 h; percent of positive-control rescue, neutral wells zero; protection from apoptosis, % (test concentration not listed);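 active = all replicates at 75% or more, or half of them and the mean; inconclusive = half reach 75% but not the mean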;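 also: 0% = cytokine-treated negative control wells and 100% = positive control rescue; higher means more ATP so stronger rescue from cytokine killing; wells of about 40 µL received 100 nL stock; the first replicate is given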
rRNA inh HTS: inhibitors of bacterial rRNA selective over humanized ribosomes; E. coli WT GFP vs humanized-ribosome RFP mutants, fluorescence, 24 h; stronger effect = lower value; DMSO median 0, no signal -100; GFP signal change (wild-type ribosome), % (no concentration beside the values); 1.6% of 350,000 active; AID 720706;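 active = significant combined selectivity score with lowered wild-type GFP, culture density cut under 30%, mutant RFP and density less affected; inactive = any of these conditions unmet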; also: one replicate is shown; some compounds called inactive have numbers as strong as hits
Calb FLC: C. albicans growth modulation with fluconazole; C. albicans CaCi-2 (fluconazole-resistant clinical isolate) + fluconazole, Alamar Blue growth, 48 h; growth inhibition, % (no concentration beside the values); 0.57% of 300,000 active;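 active = most replicates above 75%; inconclusive = exactly half above 75%; inactive = most below 75%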;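 also: all wells also contain fluconazole at 8 µg/ml as a sub-toxic cotreatment; 0% = median of DMSO wells and 100% = median of geldanamycin control wells; wells of about 8 µL received 7.5 nL stock; the first replicate is given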
RanGTP-Imp inh: disruptors of Ran-importin-beta complex formation – biochemical, FRET, CFP-Ran, YFP-importin-beta, homogeneous, primary screen; cell-free CFP-Ran/YFP-importin-beta FRET ratio; 1.1% of 300,000 active; inhibition, % (concentration not given with the values);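 active = most replicates above 15%; inconclusive = exactly half above 15%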;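 also: 0% = DMSO wells and 100% = Ran loaded with GDP instead of GTP; wells of about 40 µL received 100 nL stock; the first replicate is given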
MLL AF4-AF9 inh: inhibitors of human MLL-AF4/AF9 interaction; AlphaScreen, biotin-AF4 peptide binding to FLAG-AF9; inhibition, % at 10 µM; 0.47% of 350,000 active; AID 651704;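 active = every replicate reaching a set inhibition limit, whatever the replicate mean, cut at about 25% in these data; inconclusive = mean inhibition reaches that limit but some replicates miss it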;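 also: 0% = plate neutral control median and 100% = total signal loss; the record names both 10 and 1 µM as test concentration; the first replicate is given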
Target sequence (P42568 whole entry, looked up): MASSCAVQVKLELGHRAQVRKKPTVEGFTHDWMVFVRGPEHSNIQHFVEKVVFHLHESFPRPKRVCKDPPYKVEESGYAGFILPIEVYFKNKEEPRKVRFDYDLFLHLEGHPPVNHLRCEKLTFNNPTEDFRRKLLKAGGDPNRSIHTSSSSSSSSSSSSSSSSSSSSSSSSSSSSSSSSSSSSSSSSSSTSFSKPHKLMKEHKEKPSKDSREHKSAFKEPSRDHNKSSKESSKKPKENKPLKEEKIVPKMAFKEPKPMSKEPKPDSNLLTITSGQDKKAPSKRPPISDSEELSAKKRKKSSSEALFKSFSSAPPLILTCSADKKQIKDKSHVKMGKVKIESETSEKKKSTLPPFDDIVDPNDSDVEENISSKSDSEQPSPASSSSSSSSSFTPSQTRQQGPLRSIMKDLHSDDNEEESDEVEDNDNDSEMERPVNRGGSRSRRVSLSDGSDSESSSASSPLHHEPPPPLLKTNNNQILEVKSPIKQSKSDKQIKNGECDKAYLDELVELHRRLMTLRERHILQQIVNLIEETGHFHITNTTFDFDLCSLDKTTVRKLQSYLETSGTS
rRNA inh HTS OD600: further read-out of rRNA inh HTS, marked with its call; OD600 change, %; measured here: OD600 growth;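 optical density of the mix in the first replicate; 0 = DMSO median and -100 = no signal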
rRNA inh HTS RFP: second read-out of rRNA inh HTS, no call of its own (marks repeat the call); RFP signal change, %; measured here: RFP humanized mutant strains;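 first replicate; 0 = DMSO median and -100 = no signal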
The depositor's hits bear a star; ? = inconclusive; . = no result given; & = joins results of further samples. These rows are one share of the data; the hit share may differ from the screen's.

SMILES	A1 inh	T cruzi repl	Vif A3G	Beta cell apopt	rRNA inh HTS	rRNA inh HTS OD600	rRNA inh HTS RFP	Calb FLC	RanGTP-Imp inh	MLL AF4-AF9 inh
CCOC(=O)C1(Cc2ccccc2)CCCN(Cc2ccc(OCCO)cc2)C1 (stereo unspecified)	0.6	-4.3	.	-7.3	28.6	19.7	0.3	10.4	?	0.6
COc1cccc(CN(C)C(=O)c2ccc(C)c(S(=O)(=O)N3CCCCC3)c2)c1	1.0	.	-8.4%	-5.7	-5.5	-4.5	6.9	.	.	-0.1
Cc1ccc2c(c1)C(=O)OC1(O)C3C4C=CC(C4)C3C(=O)N21 (stereo unspecified)	-0.7	-12.3	.	1.9	23.8	1.3	1.8	-3.9	-1.6	.
O=C(COc1ccccc1F)N1CCCc2ccccc21	-0.9	4.0	1.0%	-7.3	-11.1	-16.1	0.8	10.0	8.6	-0.7
CCOc1ccc(N2C(=O)CN(C)C2=S)cc1	-0.6	-3.0	-8.3%	-0.4	.	.	.	21.5	1.5	-0.4
CC(=O)N1CCc2cc(S(=O)(=O)CCC(=O)N3CCN(c4ccccc4)CC3)ccc21	-0.4	-4.2	-1.8%	-3.0	1.1	1.8	-0.5	23.2	2.3	6.1
CCc1nnc(NC(=O)c2c(-c3ccccc3)noc2C)s1	0.9	-9.7	.	-7.4	-0.3	-2.6	-0.9	-4.5	4.3	-1.1
O=C(/C=C/c1cccc(Br)c1)Nc1nn[nH]n1	0.4	-8.1	-8.2%	-2.1	-13.5	-3.9	0.2	-6.2	1.6	.
CC(C)NC(=O)CCCN1C(=O)c2ccccc2Sc2ncccc21	0.6	-4.9	-1.6%	-6.4	13.1	16.6	10.8	12.7	-1.8	-3.8
Cc1ccc(NC(=S)N2CCN(CCN3C(=O)c4cccc5cccc(c45)C3=O)CC2)cc1	0.0	73.7*	0.0%	13.8	.	.	.	-5.1	-0.9	.
O=C(O)c1nn(CCOc2ccccc2F)c(=O)c2ccccc12	-0.7	-15.6	.	2.4	-6.4	-9.1	-0.3	3.1	-2.0	-2.3
O=C(NC1CCCC1)C1CCCN1C(=O)Nc1ccccc1Cl (stereo unspecified)	0.5	1.7	21.7%	-2.5	.	.	.	1.4	-0.6	.
NS(=O)(=O)c1ccc2nc(NC(=O)C3=COCCO3)sc2c1	-2.2	-2.0	.	-1.4	-2.1	5.9	-2.3	12.0	5.0	-3.1
CC(=O)N1CCCc2cc(S(=O)(=O)Nc3ccc4c(c3)OCO4)ccc21	0.7	-6.1	14.2%	0.5	.	.	.	-5.0	-1.1	.
CC(C)c1nnc(NC(=O)CCS(=O)(=O)c2nc(-c3cccs3)cc(C(F)(F)F)n2)s1	0.3	-18.0	-10.2%	-4.5	.	.	.	2.9	?	.
O=C(Cn1c(=O)cnc2ccccc21)N1CCCc2ccccc21	1.2	-2.4	.	2.3	-3.2	-0.8	-3.4	-2.6	2.8	0.8
O=C1CCC/C=C\C[C@@H](CC(=O)N(CCO)Cc2ccccc2)C(=O)N2CCC[C@H]2CO1	0.3	.	.	0.3	-5.1	7.4	-7.0	.	.	-10.3
CCOc1ccc(Cl)cc1S(=O)(=O)N1CCC(C(=O)NCc2ccncc2)CC1	-0.1	3.6	.	2.2	-2.4	0.4	1.8	7.7	5.9	-4.6
COc1cccc(C(=S)N2CCCC2)c1OC	?	0.4	0.5%	-1.1	13.1	6.3	-0.9	-5.8	2.7	1.7
COc1cc(Cl)c(C)cc1NC(=O)COC(=O)C1=COCCO1	0.4	-3.1	-2.9%	-0.5	11.0	11.3	0.3	7.6	-5.2	-7.1
Cc1ccc(Cl)cc1NC(C#N)c1ccccc1 (stereo unspecified)	0.6	3.0	-5.5%	.	-4.5	0.8	-4.4	4.0	3.3	.
Oc1ccccc1N=Cc1c(O)ccc2ccccc12	.	-28.4	7.1%	.	-8.8	9.4	0.6	-12.7	-1.2	-0.8
O=C(O)C1CCCCC1C(=O)NC(c1ccccc1)c1ccccc1 (stereo unspecified)	-0.6	-9.4	?	3.5	-0.1	-5.8	2.4	-2.8	?	-9.5
O=C(NCc1ccco1)Nc1ccc(Br)cc1	0.3	-0.4	-3.1%	-0.6	.	.	.	-14.2	-1.7	.
COc1ccc(NC(=O)c2cccc(F)c2)cc1Cl	-8.6	0.3	4.2%	1.7	.	.	.	-1.8	5.8	.
Cc1cccc2cc3c(nc12)SC(=NCC1CCCO1)N(Cc1ccco1)C3 (stereo unspecified)	0.2	47.7	-2.5%	-7.4	.	.	.	-5.8	-1.4	.
Cc1cc(NCc2ccc(F)cc2Cl)n2nnnc2n1	0.5	-7.3	-9.8%	-5.0	.	.	.	-18.1	8.4	.
Cn1c(=O)c2ncn(CC(=O)N/N=C/c3ccco3)c2n(C)c1=O	1.9	-11.1	?	-3.5	.	.	.	2.4	1.7	.
O=C(CN1CCCCCC1)Nc1cccc([N+](=O)[O-])c1	0.6	2.9	.	-0.2	9.8	3.3	-1.1	-0.5	-1.0	0.4
CCCn1c(=O)c2ccccc2n2c(SCCOc3ccccc3)nnc12	-1.1	3.9	22.4%	.	-6.6	-6.1	-0.5	-10.1	?	-4.1
O=C(NCc1ccc2c(c1)OCO2)c1cccc(Cl)c1	-0.7	1.7	13.6%	-0.4	.	.	.	-36.5	-0.1	.
c1ccc2c(c1)c1ccccc1n1c(-c3ccc4c(c3)OCO4)nnc21	-1.1	11.8	3.1%	6.9	.	.	.	6.4	-0.6	.
COc1ccc(S(=O)(=O)n2nc(C)cc2C)c(C)c1C	0.1	1.8	4.5%	0.6	0.0	-7.2	-2.2	13.1	-2.5	1.1
COc1ccc(OC)c(NC(=O)C2CCCN2C(=O)OCc2ccccc2)c1 (stereo unspecified)	0.6	-5.7	2.1%	-2.1	.	.	.	1.0	-1.2	.
O/N=C1/C2C3CC4C5C3C1C5C1(OCCO1)C42 (stereo unspecified)	0.2	-1.5	2.4%	3.3	.	.	.	3.1	?	.
O=C1CSc2ccc(C(=O)NCCC3=CCCCC3)cc2N1	0.7	11.0	9.3%	4.1	.	.	.	4.7	0.0	.
Cc1cc(NC(=O)COC(=O)CNS(=O)(=O)c2c(F)cc(F)cc2Br)no1	1.1	.	-3.5%	-6.7	14.2	30.1	4.7	.	.	-1.4
O=c1[nH]cnc2scc(-c3ccc(-c4ccccc4)cc3)c12	-6.1	-17.6	11.0%	.	.	.	.	3.2	?	.
Cc1ccc(C)c(C(C)NC(=S)NCc2ccc(F)cc2)c1 (stereo unspecified)	-0.1	-16.6	.	1.4	-43.5	-66.6	-12.7	-4.6	-8.2	0.6
CCn1c(SCc2ccc([N+](=O)[O-])cc2)nnc1C(C)NC(=O)c1ccc(C)cc1 (stereo unspecified)	-0.6	30.0	.	-1.8	.	.	.	5.1	1.5	.
O=C(Nc1nc2ccccc2[nH]1)NC1CCCCC1	1.1	-3.3	.	9.5	-1.2	-0.4	-2.1	-5.6	-0.4	-1.3
COc1ccc(-c2nc(-c3ccc(Br)o3)no2)cc1	-6.3	-0.6	11.9%	-4.2	0.6	4.1	-2.0	-8.1	1.8	-1.4
CCOc1ccc(CC(=O)N2CCN=C2SCc2ccc([N+](=O)[O-])cc2)cc1	0.2	6.4	-7.8%	-1.7	2.3	-1.8	3.4	3.7	-1.4	5.5
CC(=O)c1ccc(NC(=O)/C(=C\c2cccs2)NC(=O)c2ccco2)cc1	-0.4	35.5	16.7%	-8.1	-1.1	-5.7	-0.2	-14.6	0.4	-0.4
COc1ccccc1-c1cc(C(=O)O)c2c(=O)n(C)c(=O)n(Cc3ccccc3)c2n1	-0.1	-6.1	.	-6.3	-9.0	-8.1	-0.1	2.1	2.8	-1.3
O=C(NCCC1=CCCCC1)C1CCC(CNc2c(N3CCCC3)c(=O)c2=O)CC1 (stereo unspecified)	1.1	-29.0	-10.9%	-6.2	3.2	-1.5	-2.8	-5.7	0.8	6.5
CCCOc1ccc(C(=O)NC(=S)NCc2cccnc2)cc1	-0.3	12.1	-0.3%	-1.2	-10.9	0.3	-3.6	?	3.1	1.4
CC(=O)Nc1cc(C(F)(F)F)ccc1OCCOc1ccccc1	0.4	-6.1	7.2%	3.4	.	.	.	14.4	-1.7	.
COc1ccc(OC)c(NC(=O)c2cc(-c3cc(C)cc(C)c3O)n[nH]2)c1	-0.1	3.2	.	.	6.8	8.9	1.1	-9.3	-1.8	-0.7
O=C(O)C1CN(C(=O)c2ccccc2)c2cc(Cl)ccc2O1 (stereo unspecified)	-0.9	-3.2	-3.0%	-0.3	11.9	-1.4	1.7	4.5	-0.8	-1.3

Two of these compounds in a different format.
Below each compound: A1 inh	T cruzi repl	Vif A3G	Beta cell apopt	rRNA inh HTS	rRNA inh HTS OD600	rRNA inh HTS RFP	Calb FLC	RanGTP-Imp inh	MLL AF4-AF9 inh
O=c1[nH]cnc2scc(-c3ccc(-c4ccccc4)cc3)c12
→ -6.1	-17.6	11.0%	.	.	.	.	3.2	?	.
Cc1ccc(C)c(C(C)NC(=S)NCc2ccc(F)cc2)c1 (stereo unspecified)
→ -0.1	-16.6	.	1.4	-43.5	-66.6	-12.7	-4.6	-8.2	0.6

Continuation:
SMILES	A1 inh	T cruzi repl	Vif A3G	Beta cell apopt	rRNA inh HTS	rRNA inh HTS OD600	rRNA inh HTS RFP	Calb FLC	RanGTP-Imp inh	MLL AF4-AF9 inh
CCN(c1ccccc1)S(=O)(=O)c1ccc(NCC2COc3ccccc3O2)nc1 (stereo unspecified)	-0.7	17.4	2.9%	1.8	.	.	.	18.1	-3.0	.
CC(Oc1ccc(Cl)cc1)c1ccnn1S(=O)(=O)c1ccc(Cl)cc1 (stereo unspecified)	-0.5	18.6	-6.6%	-1.1	.	.	.	3.7	-0.4	.
Cc1ccc(-c2cc(C(=O)NCc3ccc4c(c3)OCO4)[nH]n2)c(O)c1C	1.1	?	2.6%	-4.7	.	.	.	-21.6	8.9	.
Cc1cccc(CS(=O)(=O)Cc2ccc(C(=O)NCc3cccnc3)o2)c1	0.3	3.1	1.9%	-2.9	.	.	.	.	7.1	.
CCc1noc(C)c1C(=O)N(CC)c1nc2c(C)cccc2s1	-0.1	16.5	2.4%	-3.1	-10.5	-15.8	0.6	13.9	-1.0	-1.5
COc1ccc(/C=N/NC(=O)c2ccncc2)cc1COc1ccc(NC(C)=O)cc1	-0.4	-34.6	-5.5%	-0.4	1.7	5.6	0.3	-7.9	1.3	-1.8
Nc1c(C(=O)Nc2ccc(F)cc2)sc(=S)n1-c1ccccc1F	-0.2	20.3	.	-11.2	9.9	6.9	-0.5	-6.9	-0.5	-1.3
CCc1ccc2[nH]c(=O)c(CN(CCCN3CCOCC3)C(=O)Nc3ccc(Cl)cc3)cc2c1	1.7	20.4	5.2%&-3.8%	4.8	.	.	.	?	?	.
COC(=O)C(CC(C)C)N1CCC(=O)c2ccccc2S1(=O)=O (stereo unspecified)	0.5	-1.6	.	-0.1	-0.7	3.1	-5.8	-3.6	-2.1	2.1
